Autofluor counter: compound fluorescence in toxin protease inhibitor counterscreen | compound autofluorescence counterscreen, microsphere flow cytometry; active compounds read high | fluorescence intensity (test concentration not listed) | 360,000 tested, 3.1% active;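 active means at least 3 SD above the mean of all compounds, about 16000 in these data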;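 further: 100 nL of 1 mM stock went into each well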
Mtb hypoxia inh: PubChem AID 1159583. M. tuberculosis hypoxia-regulated fluorescent reporter, fluorescence. fluorescence inhibition, % (concentration not given with the values). 300,000 tested, 0.1% active;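 active means 35 to 45% if threefold the growth effect, above 45% if 1.5-fold the growth effect; inactive means the rest, general growth blockers included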;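 further: wells of about 50 µL received 100 nL stock; 0% = vehicle wells and 100% = reference inhibitor wells; whole bacteria with a GFP reporter of the hypoxia response; strong numbers were not always called active; many hits fall short of the cut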
PrP 5UTR inh: inhibition of PrP 5' UTR reporter expression; inhibition, % (concentration not given with the values); cell-based PrP 5' UTR mRNA reporter, plate reader; AID 488862, 2010; 340,000 tested, 0.35% active;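 active means every replicate at 50% or more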;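 further: 0 = median of the neutral control wells; tested in H4 reporter cells; numbers are from one replicate; inactives centre near -14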
Sa RN4220 lethal: growth inhibition of S. aureus RN4220, primary screen, OD600; 16 h; inhibition, % (test concentration not listed); 330,000 tested, 0.33% active;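 active means z-score of -3 or lower and OD600 up to 0.18 on both plates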;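 further: plate controls were untreated cells for no effect and reference antibiotic for full effect; stock transfer was 100 nL into about 80 µL; one replicate is shown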
BJeLR viability: MLPCN primary cell-based screen for lethality selective to Ras in HRASV12 cells; BJeLR (HRASV12) viability, CellTiter-Glo ATP luminescence, 48 h; reference of the scale not given here; inhibition, % (test concentration not listed); 300,000 tested, 0.17% active; AID 1554, 2009;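 active means replicate mean above 50%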;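 further: 50 nL library stock added to about 25 µL; numbers are from one replicate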
ugtP null kill: growth inhibition of ugtP-null S. aureus, primary screen, RN4220 ugtP deletion, OD600; 16 h; some inactives read as strong as hits; growth inhibition, % (no concentration beside the values); 330,000 tested, 0.54% active; AID 1259309, 2017;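 active means z-score under -3 and OD600 up to 0.15 on both plates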;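 further: plate controls were untreated wells for no effect and antibiotic for full effect; wells of about 80 µL received 100 nL stock; the first replicate is given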
Mtb hypoxia inh growth: recorded beside Mtb hypoxia inh, whose call it bears; growth inhibition, %; measured here: M. tuberculosis growth (absorbance);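 0% = vehicle and 100% = reference antibiotic; read after six days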
* hit, by the source's call; · = no result given. This is a random part of the collection (roughly 4% active in at least one column).

No. | SMILES | Autofluor counter | Mtb hypoxia inh | Mtb hypoxia inh growth | PrP 5UTR inh | Sa RN4220 lethal | BJeLR viability | ugtP null kill
1 | COc1ccc(C(=O)NC2CCN(C(=O)Nc3ccccc3Cl)CC2)cc1 | 2175 | 9 | 11 | -17 | 1.3 | -1 | 10
2 | COc1ccccc1/C=C/C1C(C(=O)OCC(C)C)=C(C)N=C2SCCC(=O)N21 (configuration not stated) | 4245 | 8 | 5 | -31 | -4.0 | -3 | 1
3 | CCN1CCN(S(=O)(=O)c2ccc(F)c(C(=O)Nc3c(F)cc(F)cc3Br)c2)CC1 | 3825 | 4 | 9 | -13 | 2.2 | 10 | 0
4 | O=C(CC1C(=O)NCCN1C(=O)c1ccc([N+](=O)[O-])cc1)Nc1ccc(F)cc1 (configuration not stated) | 4299 | -1 | -7 | 1 | 5.5 | 2 | 9
5 | C/C(=N\N1CCN(C)CC1)c1c(O)[nH]c(=O)[nH]c1=O | 2164 | -4 | 1 | -28 | -4.8 | -1 | -3
6 | COC(=O)Cn1nnc2c(cnn2-c2ccccc2)c1=O | 3754 | 8 | 0 | -10 | -0.5 | 1 | 1
7 | O=C(CSc1ccc(-c2ccccn2)nn1)Nc1ccc(F)cc1F | 5995 | · | · | -12 | 3.2 | 1 | 11
8 | N#Cc1cccc(NC(=O)CN2CCCCCC2)c1 | 3695 | 13 | 0 | -9 | 2.1 | -7 | -4
9 | CCCN1CCN(C(=O)c2oc3c(Cl)cccc3c2C)CC1 | 3897 | 10 | 11 | -11 | -0.5 | 14 | 15
10 | CC(=O)Nc1ccc(S(=O)(=O)N2CCC(C(=O)NCCC(=O)Nc3ccccc3)CC2)cc1 | 4283 | -10 | 7 | 9 | -1.4 | 2 | -1
11 | Cc1ccc(C(=O)NC(C)CCc2ccccc2)cc1S(=O)(=O)N1CCOCC1 (configuration not stated) | 6311 | -2 | -4 | -2 | 1.4 | · | 4
12 | CC1Cc2ccccc2N1S(=O)(=O)c1cccc(C(=O)Nc2cccnc2)c1 (configuration not stated) | 4522 | 16 | 11 | -5 | 5.7 | 8 | -3
13 | C#CCNC(=O)C1=C[C@@H](c2ccc(C(F)(F)F)cc2)C[C@@H](OCc2ccc(CO)cc2)O1 | 3598 | · | · | -6 | · | 3 | ·
14 | COc1ccc(CN2CCN(C(=O)C3CCN(S(=O)(=O)c4cccs4)CC3)CC2)c(OC)c1OC | 3659 | -9 | -1 | -68 | 4.6 | 6 | 3
15 | O=C(NCC(=O)N(CC1CCCO1)C1(C(=O)NC2CCCC2)CCCCC1)c1ccccc1 (configuration not stated) | 8854 | -1 | 8 | -14 | 1.4 | 0 | 1
16 | Cc1ccc(Nc2nc(N)nc(CSCCO)n2)cc1 | 4723 | 5 | 6 | -41 | -3.6 | 2 | -3
17 | CN1CCN(S(=O)(=O)c2cccc(C(=O)Nc3nc(-c4ccccc4)cs3)c2)CC1 | 23294* | -10 | 10 | -14 | 4.5 | · | 19
18 | CN(CC(=O)N1CCOCC1)C(=O)CSc1nc2ccccc2s1 | 2412 | -7 | -22 | -17 | 13 | -5 | 3
19 | Cc1ccc(CSC2=Nc3ccccc3C3=NC(CC(=O)NCc4ccco4)C(=O)N23)cc1 (configuration not stated) | 4545 | 1 | 3 | -25 | -7.3 | -4 | 11
20 | CCCc1c(C(=O)NN=Cc2cccc3ccccc23)nnn1-c1nonc1N | · | 0 | 17 | · | 0.5 | · | -3
21 | CCC(=O)c1cc2c(C)cc(=O)oc2c(C)c1OC | 22529* | 7 | 19 | -15 | 9.5 | 7 | 1
22 | O=C(O)c1cc(C2CC2)nc2ccccc12 | 3856 | 15 | 9 | -14 | 5.0 | 2 | -4
23 | CC(C)CCN1C(=O)c2ccc(C(=O)NCC3CCCO3)cc2C1=O (configuration not stated) | 4652 | · | · | -14 | 2.9 | 2 | 0
24 | NC(=O)NN=C/C=C/c1ccc(F)cc1 | · | 7 | -4 | · | 4.3 | · | 1
25 | CN1CCN(C(=O)c2cc3nc(-c4ccccc4)cc(-c4ccccc4)n3n2)CC1 | 3200 | 6 | 8 | -16 | 1.9 | -11 | 6

3 entries from above, arranged by length of the SMILES, ascending:
No. | SMILES | Autofluor counter | Mtb hypoxia inh | Mtb hypoxia inh growth | PrP 5UTR inh | Sa RN4220 lethal | BJeLR viability | ugtP null kill
23 | CC(C)CCN1C(=O)c2ccc(C(=O)NCC3CCCO3)cc2C1=O (configuration not stated) | 4652 | · | · | -14 | 2.9 | 2 | 0
17 | CN1CCN(S(=O)(=O)c2cccc(C(=O)Nc3nc(-c4ccccc4)cs3)c2)CC1 | 23294* | -10 | 10 | -14 | 4.5 | · | 19
19 | Cc1ccc(CSC2=Nc3ccccc3C3=NC(CC(=O)NCc4ccco4)C(=O)N23)cc1 (configuration not stated) | 4545 | 1 | 3 | -25 | -7.3 | -4 | 11

Next part.
No. | SMILES | Autofluor counter | Mtb hypoxia inh | Mtb hypoxia inh growth | PrP 5UTR inh | Sa RN4220 lethal | BJeLR viability | ugtP null kill
26 | Cc1cccc(-c2noc(CCC(=O)Nc3ccc(C(N)=O)cc3)n2)c1 | 5339 | 0 | 3 | · | 3.4 | 4 | 8
27 | COC(=O)C(O)(NC(=O)NC(C)=O)C(F)(F)F (configuration not stated) | 3744 | · | · | 0 | 47 | -1 | 10
28 | CCC(Oc1ccccc1)C(=O)N1CCC(C(N)=O)CC1 (configuration not stated) | 3496 | 4 | 2 | -17 | 6.5 | -5 | 1
29 | COc1cc(-c2nc(C)c(C(C)=O)n2O)ccc1OCC(=O)Nc1ccc(F)cc1 | 4351 | 0 | 2 | -45 | 5.1 | -2 | 11
30 | COc1ccc(C)cc1NC(=O)c1nnn(Cc2cccc(F)c2)c1N | 6165 | · | · | -32 | 7.6 | -11 | 5
31 | CCOC(=O)N1CCN(c2ccc(S(=O)(=O)N3CCOCC3)cn2)CC1 | 6294 | -2 | 2 | -33 | 6.3 | · | 8
32 | O=C1CCCC(=NNc2ccc(Cl)cc2)C1 | · | 7 | 10 | · | -6.5 | · | 8
33 | CCCCn1c(N)c(N(CC)C(=O)c2cc(OC)cc(OC)c2)c(=O)[nH]c1=O | 4447 | 11 | 6 | -11 | 4.3 | -8 | 7
34 | COc1ccc(CN(CC(=O)NCc2ccc(F)cc2)C(=O)CCC(=O)Nc2ccccn2)cc1 | 4029 | 3 | -3 | -20 | -4.2 | -2 | -5
35 | COc1ccc(S(=O)(=O)Nc2cccc(S(=O)(=O)N3CCCC3)c2)cc1OC | 4299 | -1 | -6 | -17 | 5.1 | 13 | 11

14 entries out of the list, sorted by number of heavy atoms, rising.
No. | SMILES | Autofluor counter | Mtb hypoxia inh | Mtb hypoxia inh growth | PrP 5UTR inh | Sa RN4220 lethal | BJeLR viability | ugtP null kill
24 | NC(=O)NN=C/C=C/c1ccc(F)cc1 | · | 7 | -4 | · | 4.3 | · | 1
32 | O=C1CCCC(=NNc2ccc(Cl)cc2)C1 | · | 7 | 10 | · | -6.5 | · | 8
27 | COC(=O)C(O)(NC(=O)NC(C)=O)C(F)(F)F (configuration not stated) | 3744 | · | · | 0 | 47 | -1 | 10
5 | C/C(=N\N1CCN(C)CC1)c1c(O)[nH]c(=O)[nH]c1=O | 2164 | -4 | 1 | -28 | -4.8 | -1 | -3
16 | Cc1ccc(Nc2nc(N)nc(CSCCO)n2)cc1 | 4723 | 5 | 6 | -41 | -3.6 | 2 | -3
6 | COC(=O)Cn1nnc2c(cnn2-c2ccccc2)c1=O | 3754 | 8 | 0 | -10 | -0.5 | 1 | 1
18 | CN(CC(=O)N1CCOCC1)C(=O)CSc1nc2ccccc2s1 | 2412 | -7 | -22 | -17 | 13 | -5 | 3
7 | O=C(CSc1ccc(-c2ccccn2)nn1)Nc1ccc(F)cc1F | 5995 | · | · | -12 | 3.2 | 1 | 11
30 | COc1ccc(C)cc1NC(=O)c1nnn(Cc2cccc(F)c2)c1N | 6165 | · | · | -32 | 7.6 | -11 | 5
35 | COc1ccc(S(=O)(=O)Nc2cccc(S(=O)(=O)N3CCCC3)c2)cc1OC | 4299 | -1 | -6 | -17 | 5.1 | 13 | 11
11 | Cc1ccc(C(=O)NC(C)CCc2ccccc2)cc1S(=O)(=O)N1CCOCC1 (configuration not stated) | 6311 | -2 | -4 | -2 | 1.4 | · | 4
25 | CN1CCN(C(=O)c2cc3nc(-c4ccccc4)cc(-c4ccccc4)n3n2)CC1 | 3200 | 6 | 8 | -16 | 1.9 | -11 | 6
15 | O=C(NCC(=O)N(CC1CCCO1)C1(C(=O)NC2CCCC2)CCCCC1)c1ccccc1 (configuration not stated) | 8854 | -1 | 8 | -14 | 1.4 | 0 | 1
34 | COc1ccc(CN(CC(=O)NCc2ccc(F)cc2)C(=O)CCC(=O)Nc2ccccn2)cc1 | 4029 | 3 | -3 | -20 | -4.2 | -2 | -5
